Source: PubChem
Yeast UUG start: modulators of yeast start codon fidelity, primary screen, whole organism, S. cerevisiae, single point, plate reader; S. cerevisiae UUG-firefly luciferase reporter, luminescence/redox ratio; AID 602363, 2012; activity score, % at 18.7 µM; 350,000 tested, 0.13% active;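 active = replicate mean at a twofold rise or more, about +100% in these data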;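 note: firefly luciferase made from a UUG start codon reports start codon fidelity; reporter light over untreated wells divided by growth signal over untreated wells; some hits fall short of that in this replicate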
Env fusion inh: inhibitors of HIV-1 Env-driven cell-cell fusion, primary screen, HeLa-JRFL effector, CEM21 target cells, luciferase; inhibition, % at 12.3 µM; AID 651610, 2012; 360,000 tested, 1.1% active;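 active = mean replicate inhibition score of at least 50 and every replicate individually at or above 50; inconclusive = only one of the two criteria met; inactive = mean below 50 and not all replicates reaching 50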;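 note: 0% = plate neutral controls and 100% = maraviroc near 300 nM; one replicate is shown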
MT1-MMP act inh: blockers of MT1-MMP proenzyme processing, primary screen, HT1080 RFP-PRO-GFP cells, GFP/RFP fluorescence | GFP/RFP ratio fluorescence, overnight; percent of plate control window, DMSO zero | GFP/RFP ratio change, % at 20 µM | 360,000 tested, 0.061% active | AID 651647, 2012;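 active = GFP/RFP ratio change of at least 30% with cell ATP level not reduced by more than half and red fluorescence within 50% of control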; note: strong numbers were not always called active
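Assay system – RFP-PRO-GFP reporter HT1080 cells · Compound dosing – single dose of 20 µM compound, 1% DMSO final · Incubation – overnight compound exposure at 37 °C · Measure – GFP/RFP fluorescence ratio · Benchmarks – DMSO wells and RFP-L50D-GFP cells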
MT1-MMP act inh RFP: second read-out of MT1-MMP act inh, no call of its own (marks repeat the call); RFP signal change, %; measured here: RFP expression control read;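 0 = vehicle wells; hits needed this value within 50% of zero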
* hit, by the source's call; ? = inconclusive; . = no result given.

Yeast UUG start | Env fusion inh | MT1-MMP act inh | MT1-MMP act inh RFP | SMILES
-15 | . | 3 | 3 | CCCc1cc(=O)oc2cc(C)cc(OCC(=O)N3C[C@H]4C[C@@H](C3)c3cccc(=O)n3C4)c12
-16 | . | 3 | 3 | CCc1sc(C(=O)N(CCCOC)c2c(N)n(CC(C)C)c(=O)[nH]c2=O)cc1C
-3 | . | 2 | -7 | O=C(NCc1ccco1)c1ccc(-c2ccc(F)c(F)c2)c2ccoc12
-28 | . | 8 | 8 | COc1ccc(CN2CCC(C(=O)NC(C)c3cccc4ccccc34)CC2)cc1 (stereo unspecified)
-40 | . | 2 | 8 | C[C@H](NC(=O)c1ccccc1)C(=O)OCC(=O)c1c[nH]c2ccccc12
-10 | . | 0 | 0 | Cc1ccc(OC(C)C(=O)N(C)c2ccccc2)c([N+](=O)[O-])n1 (stereo unspecified)
-6 | . | 6 | 1 | CC(=O)O[C@@H]1[C@H](Oc2c(O)c(C)c3c4c2[C@H](C)CC[C@H]4[C@H](C)C[C@@H]3C=C(C)C)O[C@@H](C)[C@@H](O)[C@H]1O
11 | . | 3 | 0 | O=C(COC(=O)CCN1C(=O)c2ccccc2C1=O)Nc1ccccc1[N+](=O)[O-]
-8 | . | 0 | 3 | CCN(CC)S(=O)(=O)c1ccc(/C=C/C(=O)OCC(=O)NCc2cccs2)cc1
-11 | . | 3 | 1 | CCCCn1c(O)c2n(c1=O)Cc1ccccc1N=C2c1ccc(OC)cc1
-1 | . | -7 | -8 | C=C(C)C(O)CC/C(C)=C/Cc1c(O)ccc(C(=O)/C=C/c2ccc(O)cc2)c1O (stereo unspecified)
-16 | . | -20 | -20 | Nc1c(N(CCC2=CCCCC2)C(=O)COc2ccc(F)cc2Cl)c(=O)[nH]c(=O)n1Cc1ccccc1
0 | . | -1 | -23 | COc1cccc(CN(C)C(=O)c2ccc(Cl)c(S(=O)(=O)N3CCCCCC3)c2)c1OC
-5 | . | -2 | 4 | O=C(COc1ccc(Br)cc1)NNC(=O)c1ccc(-n2cncn2)c([N+](=O)[O-])c1
10 | . | 4 | 2 | CN1C(=O)N(CC(=O)NCc2ccc(Cl)cc2Cl)C(=O)C12CCCCC2
-17 | . | -4 | -1 | CCN1CCN(C(c2cccnc2)c2c(NC(=O)c3ccco3)sc(C)c2C)CC1 (stereo unspecified)
-4 | . | 4 | 3 | COc1ccc(C2CC=C(C(C)=O)CN2S(=O)(=O)c2ccccc2)cc1 (stereo unspecified)
-6 | . | -142 | -14 | O=C(NCCc1ccc(F)cc1)c1cccc2c1C(=O)c1ccc(N3CCC(Cc4ccccc4)CC3)cc1S2(=O)=O
-4 | . | -6 | 5 | O=C(Nc1ccc(NC(=O)c2ccccc2)c2ccccc12)c1ccccc1
-17 | . | 3 | 6 | CCN(c1ccccc1)S(=O)(=O)c1ccc(OCC(F)(F)F)c(NC(=O)c2ccc(=O)[nH]c2)c1
-10 | . | 2 | 0 | Cc1c(C(=O)O)sc(S(=O)(=O)N2CCN(C(=O)CC(C)c3ccccc3)CC2)c1C(=O)O (stereo unspecified)
-55 | . | 4 | -1 | COc1ccc2oc(-c3ccccc3)cc(=O)c2c1
-5 | . | 2 | 2 | CN(CC(=O)Nc1ccc(Cl)c(C(F)(F)F)c1)C(=O)COC(=O)C1CC2CCCC(C1)C2=O (stereo unspecified)
-6 | . | -4 | 4 | CN(C(=O)COC(=O)c1ccccc1OCc1ccc(F)cc1)C1CCS(=O)(=O)C1 (stereo unspecified)
-5 | . | 0 | 3 | Cc1cn([C@H]2C[C@H](O)[C@@H](CNS(=O)(=O)N3CCCC3)O2)c(=O)[nH]c1=O
-24 | . | -3 | 0 | COc1ccc(/C=C/C(=O)OCC(=O)N2CCN(S(=O)(=O)c3ccc(C)cc3C)CC2)cc1OC
-5 | . | 2 | 2 | CCCCN(C(=O)c1ccc(S(=O)(=O)N(C)c2ccccc2)cc1)c1c(N)n(CCC)c(=O)[nH]c1=O
-3 | . | -4 | 1 | COc1ccc(S(=O)(=O)N2CCN(C)CC2c2ccccc2)cc1 (stereo unspecified)
-14 | . | -1 | 2 | O=S1(=O)c2ccccc2C(O)(c2ccccc2)c2ccccc21
-10 | . | -18 | -3 | COc1ccc(-c2cc(=O)c3ccc(O)cc3o2)cc1

In another format: 2 of the compounds above
Cc1c(C(=O)O)sc(S(=O)(=O)N2CCN(C(=O)CC(C)c3ccccc3)CC2)c1C(=O)O (stereo unspecified)
  Yeast UUG start: -10
  Env fusion inh: .
  MT1-MMP act inh: 2
  MT1-MMP act inh RFP: 0

COc1ccc2oc(-c3ccccc3)cc(=O)c2c1
  Yeast UUG start: -55
  Env fusion inh: .
  MT1-MMP act inh: 4
  MT1-MMP act inh RFP: -1

Following part.
Yeast UUG start | Env fusion inh | MT1-MMP act inh | MT1-MMP act inh RFP | SMILES
24 | . | 0 | 4 | CCCc1nc2ccc(Cl)cn2c1Cc1ccc(C)cc1
1 | . | 0 | 1 | COC(=O)[C@]1(C)N[C@H](CN(C)S(=O)(=O)c2ccc(OC(F)(F)F)cc2)[C@@H]2C(=O)N(C)C(=O)[C@@H]21
-2 | . | -4 | -4 | O=S(=O)(Nc1cc(S(=O)(=O)N2CCOCC2)ccc1NCC1CCCO1)c1ccccc1 (stereo unspecified)
-19 | . | 4 | 4 | CC(C)C[C@@H](CO)NS(=O)(=O)c1cc(Cl)ccc1F
-20 | . | -3 | -2 | CCCNC(=O)CN1CCN(S(=O)(=O)c2ccc(Br)s2)CC1
8 | . | 4 | 2 | CCCCCCNC(=O)O[C@H]1C[C@@H]2C(=O)N(c3ccccc3)C(=O)[C@@H]2[C@@H]2CN(S(=O)(=O)c3ccc(C)cc3)C[C@]12O
82 | . | 1 | 3 | CCCC(=O)c1ccc(OCc2cn(CC(=O)c3ccc(O)cc3)nn2)cc1
-9 | . | 7 | 2 | CCOc1ccc(NC(=O)CN(C)C(=O)C2CSC3(C)CCC(=O)N23)cc1OCC (stereo unspecified)
-29 | . | -1 | 0 | O=c1[nH]cnc2c1ncn2C1OCC(O)C(O)C1O (stereo unspecified)
-11 | . | 0 | 3 | O=C1NC(=NCc2ccccc2)NC1(c1ccccc1)c1ccccc1
11 | . | 1 | 2 | O=S(=O)(NCc1nnc2ccccn12)c1ccc(F)cc1
-7 | . | -1 | -2 | CC(=O)c1ccc(NC(=O)C(C)OC(=O)c2ccc(Br)o2)cc1 (stereo unspecified)
-17 | . | 4 | 1 | O=C(/C=C/[C@H]1O[C@@H](n2ccc(=O)[nH]c2=O)[C@H](O)[C@@H]1O)NCc1ccco1
20 | . | 4 | 7 | C/C=C/c1cccc(-c2nc(C(=O)NC3CCCC3)cc3c2[C@@H](CCO)N(S(=O)C(C)(C)C)C3)c1 (stereo partly specified)
. | 16 | 4 | -1 | CCOC(=O)C1CCN(C(=O)c2ccccc2)C(CC)C1=O (stereo unspecified)
. | -6 | 5 | 5 | CCOC(=O)N1CCN(C(=O)C[C@@H]2C[C@@]3(C(=O)OCC)CCC=C3N(Cc3ccccc3)C2=O)CC1
. | -12 | -36 | -32 | COC(=O)[C@@]12C[C@@H](CC(=O)N3CCCCC3)C(=O)N(Cc3cccc4ccccc34)C1=CCC(C)(C)C2
. | -20 | 4 | 4 | COc1cc2c(cc1OC(C)=O)C(=O)CCCC2
. | -15 | 6 | 5 | COC(=O)/C=C1\OCc2cccc(C)c21
. | -41 | -3 | 3 | CC(=O)NCc1ccc(C(=O)CN2C(=O)NC3(CCCCC3C)C2=O)s1 (stereo unspecified)
. | 5 | 0 | 4 | O=C1NC[C@H](CCCCN2C[C@H](Cc3ccc(O)cc3)N(CCc3ccccc3)C(=O)C2=O)N(CCc2ccc(O)cc2)C1=O
. | 3 | -3 | 3 | O=c1[nH]nc(-c2n[nH]c(=O)o2)o1
. | 35 | 5 | 3 | CC1(c2nnnn2Cc2ccccc2)CCC(=O)N1Cc1cccc(C(F)(F)F)c1 (stereo unspecified)
. | 11 | 5 | 5 | CCOC(=O)N1CCN(C(=O)C[C@@H]2C[C@@]3(C(=O)OC)CCCCC=C3N(CCc3ccc(OC)c(OC)c3)C2=O)CC1
. | -13 | 2 | 5 | CCCCn1nnnc1C1(C)CCC(=O)N1Cc1ccco1 (stereo unspecified)
. | ? | -2 | 4 | O=C(Nc1cccc([N+](=O)[O-])c1)N(c1ccccc1)c1ccccc1
. | -22 | -3 | -1 | CCNC(=O)C1CCCN(Cc2ccc(OCc3ccccc3)cc2)CC1 (stereo unspecified)
. | -16 | -4 | 1 | O=C1C=CC(=O)N1Cc1ccncc1
. | 6 | -2 | -6 | O=C1Nc2ccccc2-n2nnnc2C1N1CCN(c2cccc(C(F)(F)F)n2)CC1 (stereo unspecified)
. | -50 | -4 | 3 | COc1ccc(C2=Nc3ccccc3N(C(=O)c3ccc4ncccc4c3)C2C(=O)NC2CCCC2)cc1 (stereo unspecified)

7 entries out of the list above, arranged by the number in MT1-MMP act inh RFP, descending.
Yeast UUG start | Env fusion inh | MT1-MMP act inh | MT1-MMP act inh RFP | SMILES
20 | . | 4 | 7 | C/C=C/c1cccc(-c2nc(C(=O)NC3CCCC3)cc3c2[C@@H](CCO)N(S(=O)C(C)(C)C)C3)c1 (stereo partly specified)
. | 11 | 5 | 5 | CCOC(=O)N1CCN(C(=O)C[C@@H]2C[C@@]3(C(=O)OC)CCCCC=C3N(CCc3ccc(OC)c(OC)c3)C2=O)CC1
24 | . | 0 | 4 | CCCc1nc2ccc(Cl)cn2c1Cc1ccc(C)cc1
. | -50 | -4 | 3 | COc1ccc(C2=Nc3ccccc3N(C(=O)c3ccc4ncccc4c3)C2C(=O)NC2CCCC2)cc1 (stereo unspecified)
-29 | . | -1 | 0 | O=c1[nH]cnc2c1ncn2C1OCC(O)C(O)C1O (stereo unspecified)
-7 | . | -1 | -2 | CC(=O)c1ccc(NC(=O)C(C)OC(=O)c2ccc(Br)o2)cc1 (stereo unspecified)
0 | . | -1 | -23 | COc1cccc(CN(C)C(=O)c2ccc(Cl)c(S(=O)(=O)N3CCCCCC3)c2)c1OC

Going on with the list.
Yeast UUG start | Env fusion inh | MT1-MMP act inh | MT1-MMP act inh RFP | SMILES
. | -65 | 2 | 5 | O=C(/C=C1\OCc2ccccc21)OCc1ccccc1
. | -12 | -1 | 5 | COC(=O)C[C@@H]1CC[C@H](NC(=O)Cc2ccccn2)[C@@H](CO)O1
. | 0 | -5 | -2 | COc1ccc(N2CCN(C(c3ccccc3)c3nnnn3C(C)(C)C)CC2)cc1 (stereo unspecified)
. | 2 | -5 | 0 | CC(C)N(Cc1ccccc1)C(=O)COC(=O)c1ccc(O)cc1
. | -14 | -3 | 4 | Cc1cccc(C)c1-n1nnnc1C1(C)CCC(=O)N1Cc1cccs1 (stereo unspecified)
. | -11 | 4 | 4 | O=C(NCCO)OC1CC2CC1[C@H]1CCCCN1C2=O (stereo partly specified)
. | -5 | 4 | -2 | COC(=O)[C@@]1(Cc2ccc(OC)cc2)[C@H]2c3cc(C(=O)N4CCCC4)n(Cc4ccccn4)c3C[C@H]2CN1C(=O)c1ccccc1
. | 19 | 10 | 9 | N#CC1C(=O)NC(=O)C(C#N)C12CCCCC2 (stereo unspecified)
. | 0 | -10 | -17 | CC(C)(C)C(c1nc2ccccc2[nH]1)n1c(-c2ccsc2)nc2ccccc21 (stereo unspecified)
. | 6 | -3 | -2 | CCCCNC(=O)c1nc(C2CCN(S(=O)(=O)c3ccc(S(C)(=O)=O)cc3)CC2)oc1-c1ccccc1
. | 12 | 19 | 6 | CCC(=NNc1ccc([N+](=O)[O-])cc1[N+](=O)[O-])c1ccccc1
. | ? | 5 | 4 | COC(=O)[C@]12CCCCC=C1N(Cc1ccccc1)C(=O)[C@H](CC(=O)N1CCOCC1)C2
. | -10 | 4 | 5 | COCC1CCN(C(=O)c2cc(COc3ccc(OC)cc3Cl)on2)C1 (stereo unspecified)
. | 2 | -2 | -5 | COC(=O)[C@]12CCCCC=C1N(Cc1ccc(Cl)cc1Cl)C(=O)[C@H](CC(=O)NCc1cccc(C(F)(F)F)c1)C2
. | 1 | -1 | 4 | O=C(Nc1ccc2c(c1)OCCO2)C1C(=O)Nc2ccccc2C(=O)N1C1CCCCC1 (stereo unspecified)
. | 12 | 9 | -2 | CC(C)C(Cl)=NOC(=O)Nc1ccc(F)cc1
. | -10 | -25 | -30 | COC(=O)[C@]12CCCCC=C1N(Cc1ccc3c(c1)OCO3)C(=O)[C@H](CC(=O)NCC13CC4CC(CC(C4)C1)C3)C2

For reference, 5 of the compounds above.
Yeast UUG start | Env fusion inh | MT1-MMP act inh | MT1-MMP act inh RFP | SMILES
. | -5 | 4 | -2 | COC(=O)[C@@]1(Cc2ccc(OC)cc2)[C@H]2c3cc(C(=O)N4CCCC4)n(Cc4ccccn4)c3C[C@H]2CN1C(=O)c1ccccc1
. | 19 | 10 | 9 | N#CC1C(=O)NC(=O)C(C#N)C12CCCCC2 (stereo unspecified)
. | 0 | -10 | -17 | CC(C)(C)C(c1nc2ccccc2[nH]1)n1c(-c2ccsc2)nc2ccccc21 (stereo unspecified)
. | 6 | -3 | -2 | CCCCNC(=O)c1nc(C2CCN(S(=O)(=O)c3ccc(S(C)(=O)=O)cc3)CC2)oc1-c1ccccc1
. | 12 | 19 | 6 | CCC(=NNc1ccc([N+](=O)[O-])cc1[N+](=O)[O-])c1ccccc1

Only part of the results is shown, so the mix of outcomes need not match the whole.
